High-throughput results from PubChem.
CapD inh: CapD enzyme inhibition | purified CapD enzyme, fluorescence intensity read-out; active compounds read low; some hits fall short of the stated cut | z-score (test concentration not listed) | 140,000 tested, 0.23% active | AID 492967;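 active = z-score under -4 in either of two replicates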;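 note: stock transfer was 100 nL into about 40 µL; score is relative to mean and spread of the plate; one replicate is shown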
AID504770: E. coli YBA685 growth inhibition, screen for V. cholerae RctB inhibitors; AID 504770; E. coli YBA685 rctB-dependent plasmid, OD600 growth, 3 h; active compounds read low; 130,000 tested, 0.27% active; z-score (test concentration not listed);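 active = z-score under -2 on both plates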;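 note: wells of about 30 µL received 100 nL stock; score is relative to mean and SD of the test wells; the first replicate is given; strong numbers were not always called active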
The depositor's hits bear a star; · = not tested or not shown; & = joins results of further samples. An excerpt; rates above refer to the full screens.

molecule | CapD inh | AID504770
CC1(C)OC(C)(C)c2nc3ccncc3cc21 | -0.33 | ·
Cc1nn(-c2ccccc2)c(N2CCCC2)c1/C=N/NC(=O)c1ccccc1O | · | -0.5
CN1CCN(C(=O)C2CCC(C)(C(=O)O)C2(C)C)CC1 (centres undefined) | -0.59 | 2.8
Cn1ccnc1SCC(=O)N1c2ccccc2CCc2ccccc21 | 0.36 | -0.2
O=C(COCc1cc(-c2ccc3c(c2)OCO3)on1)Nc1cc(F)ccc1F | 1.1 | 0
CCN(C(=O)NC1(C(F)(F)F)Oc2ccccc2O1)C1CCCCC1 | -2.6 | ·
Cc1cc(COC(=O)NCCc2c[nH]c3ccc(O)cc23)ccc1[N+](=O)[O-] | -0.84 | ·
CC(C)NC(=O)CC#N | · | -0.3
COc1cccc2c(=O)c(NC(=O)N3CCC(CO)CC3)c[nH]c12 | 94 | -0.9
Cn1c(=O)c2c(ncn2CCOC(=O)NNC(=O)/C=C/c2ccco2)n(C)c1=O | -0.32 | ·
CCOC(=O)c1ccc(NC(=S)NCCCN2CCOCC2)cc1 | -0.3 | ·
CCN(CC)C(=O)CSc1ncnc2c1cnn2-c1ccccc1 | · | 0.15
CCCCNC(=O)c1ccc(N2CCCC2)c(NS(=O)(=O)c2ccc(C)cc2)c1 | -0.8 | 0.05
Cc1nn(C)c(=O)c2noc(/C=C/c3ccsc3)c12 | 0.9 | -0.25
O=[N+]([O-])c1ccc(Sc2ccc(Cl)cc2)c(-c2ccn[nH]2)c1 | -1.1 | ·
COc1cccc(OCc2nnc(SCC(=O)O)o2)c1 | · | -1.5
COc1ccc(-c2noc(CNC(=O)/C=C/c3ccc(OC)c(OC)c3)n2)cc1 | · | 1.1
CSC1=NNC(c2ccccn2)S1 (centres undefined) | -3.4 | -0.45
CCNC(=S)N1CCN(CC(=O)Nc2cc(Cl)cc(Cl)c2)CC1 | -0.17 | 0.45
O=C(c1cnn2cc(Br)cnc12)N1CCCc2ccccc21 | -1.6 | 1.6

The last 3 records of the section above are carried over, then new ones follow.
molecule | CapD inh | AID504770
CSC1=NNC(c2ccccn2)S1 (centres undefined) | -3.4 | -0.45
CCNC(=S)N1CCN(CC(=O)Nc2cc(Cl)cc(Cl)c2)CC1 | -0.17 | 0.45
O=C(c1cnn2cc(Br)cnc12)N1CCCc2ccccc21 | -1.6 | 1.6
CC(C)=CCC(C)(C)C1OCCN1C(=O)Nc1ccccc1 (centres undefined) | · | 1.9
CCCn1c(C)c(Br)c(=O)n(C(C)(C)C)c1=O | · | 0.1
Nc1nc(=O)c2cccnc2s1 | · | 1.8
Brc1ccc2[nH]c3nc(SCCN4CCOCC4)nnc3c2c1 | -1.1 | 0.1
CCOc1cc(-c2cc(N)n[nH]2)cc(OCC)c1OCC | -0.04 | 1.1
CCCCN=C1CCCc2ccccc2N1 | 0.34 | -0.4
CCOCCOC(=O)C1=C(C)NC2=C(C(=O)CC(c3ccc(Cl)cc3)C2)C1c1ccc([N+](=O)[O-])cc1 (centres undefined) | -1 | ·
Cc1nc(-c2ccc(Cl)cc2)nc(OC(=O)N(C)C)c1C | -0.76 | 0.4
CCN(CC)CCCNS(=O)(=O)c1cc(C(=O)Nc2cc(C(F)(F)F)ccc2Cl)ccc1F | -0.29 | ·
O=C(N/N=C/c1ccccc1Cl)c1ccc(=O)[nH]n1 | 0.67 | -0.55
COC(=O)C1C2c3ccccc3O[C@]1(C)N=c1s/c(=C/c3cccc(I)c3)c(=O)n12 (some centres undefined) | -0.12 | ·
COc1ccc(N(C(C)=O)C2C=CS(=O)(=O)C2)cc1 (centres undefined) | -0.16 | 0.6
NC(=O)N1CCCCC/C1=N\O | -0.4 | ·
COC(=O)C1=C(C)N(c2ccc(N(C)C)cc2)C(C)=C(C(=O)OC)C1c1ccccc1 | · | -0.5
O=C(NCc1cccs1)/C(=C/c1cccs1)c1ccccc1 | -1.6 | 1.9
O=C(CC1Sc2ccccc2NC1=O)OCc1nnc(-c2ccccc2)o1 (centres undefined) | · | -0.7
O=C(NCCc1ccccc1)c1cc(-c2ccco2)on1 | -0.66 | -0.4
O=C(Cc1cn2ccsc2n1)Nc1ccccc1 | -0.065 | 0.4
CC(C)(C)c1nc(N2CCN(C(=O)c3ccco3)CC2)c2nnn(Cc3ccccc3Cl)c2n1 | · | 0.85
CC(C)S(=O)(=O)c1cscc1NC(=O)Nc1ccccc1 | 0.18 | -0.15

Quoted at random: 2 compounds from above.
molecule | CapD inh | AID504770
CC(C)(C)c1nc(N2CCN(C(=O)c3ccco3)CC2)c2nnn(Cc3ccccc3Cl)c2n1 | · | 0.85
CCOCCOC(=O)C1=C(C)NC2=C(C(=O)CC(c3ccc(Cl)cc3)C2)C1c1ccc([N+](=O)[O-])cc1 (centres undefined) | -1 | ·

(more compounds)
molecule | CapD inh | AID504770
Clc1ccc(-c2ncon2)cc1 | -0.52 | -0.95
CSc1nc(C)cc(Oc2ccccc2)n1 | 0.29 | 0
O=C(Cc1ccccc1)N1CCN=C1SCc1ccccc1 | 7.6 | -0.65
Cc1ccc(OCCSc2nc(O)cc(=O)n2C2CCCC2)cc1 | · | -0.65
COc1cc(OC)nc(C2CCN(C(=O)c3c(F)cccc3F)CC2)n1 | -0.7 | ·
CCOc1ccc(C(=O)Nc2cnn(Cc3ccc(F)cc3)c2)cc1 | -0.065 | -0.4
COc1cccc(NC(=O)CSc2nc3ccccc3c(=O)n2CCCC(=O)NCCc2ccc(OC)c(OC)c2)c1 | -0.36 | ·
CCOC(=O)C1Sc2ccccc2NC1=O (centres undefined) | · | 2.2
Cc1ccc(NS(=O)(=O)c2cc3c(c([N+](=O)[O-])c2)-c2c(cc(S(=O)(=O)Nc4ccc(C)cc4)cc2[N+](=O)[O-])C3=O)cc1 | -0.29 | ·
CSc1sc(-c2ccon2)c(-c2ccccc2)c1C#N | 0.12 | -0.4
O=C(NCc1ccccc1)c1ccc2c(=O)n3nc(Nc4ccccc4)sc3nc2c1 | 4.4 | -1.1
CCOC(=O)c1c(C)nn(-c2ccc(N3C(=O)CCC3=O)cc2)c1C | 0.88 | -0.05
CC1CCCC(NC(=O)CSc2ncnc3ccccc23)C1C (centres undefined) | 0.44 | -1.1
CCN1C(=O)c2cccc3c(S(=O)(=O)N4CCc5ccccc54)ccc1c23 | · | 1.3
CCN(CC)C(=O)Oc1ccc2c(C)c(-c3ccc(OC)cc3)c(=O)oc2c1 | · | 0.85
COC(=O)C1=C(C)NC2=C(C(=O)c3ccccc32)C1c1ccc(O)c(OC)c1 (centres undefined) | · | 0
COc1cccc(/C=C2/SC(=O)N(CCC(=O)Nc3c(C)n(C)n(-c4ccccc4)c3=O)C2=O)c1 | -0.34 | ·
O=C(NCCCNC1CCCCC1)c1cc2ccccc2[nH]1 | 1.3 | -0.7
O=C(Nc1ccc2[nH]c(=O)[nH]c2c1)NC1CCCCC1 | · | 0.1
COc1ccc(-c2nnc(SCCCn3c(=O)[nH]c4ccccc43)o2)cc1 | · | 1.4

The listing continues:
smiles	CapD inh	AID504770
N#CCC(c1ccccc1)C(C#N)c1ccc(Br)cc1 (centres undefined)	0.045	-0.45
COc1ccc(Cl)c(OC)c1C(=O)O	0.33	·
COc1ccc(N(C)C(=O)Cn2nc(Cc3ccncc3)c3ccccc3c2=O)c(OC)c1	0.21	0.8
CCCc1cc(=O)oc2cc(C)c(CN3CCCC3)c(O)c12	-0.54	0.35
Cc1ccc(S(=O)(=O)N2CCOCC2)cc1NS(=O)(=O)c1cc(C(=O)Nc2ccccc2)c(Cl)cc1Cl	-0.13	·
N#Cc1c(NC(=O)c2cc(-c3cccs3)on2)sc2c1CCC2	0.32	-0.3
Cc1cc(C)c(S(=O)(=O)Nc2ccc3oc4c(c3c2)C(=O)CC(C)(C)C4)c(C)c1	-0.19	·
CCO/C=C1\c2cc([N+](=O)[O-])ccc2-c2c1cc([N+](=O)[O-])cc2[N+](=O)[O-]	-0.43	·
CC(C)NC(=O)C(C)N1CCN(S(=O)(=O)c2ccc3ccccc3c2)CC1 (centres undefined)	·	0.05
COC(=O)C1=C(C)N=c2s/c(=C\c3cccc([N+](=O)[O-])c3)c(=O)n2C1c1ccc(OC)c(OC)c1 (centres undefined)	-0.14	·
O=C(O)C1C2C=CC(C2)C1C(=O)Nc1ccccc1 (centres undefined)	0.58	·
CCCCc1cc(C)c2[nH]cc(C(=O)O)c(=O)c2c1	0.74	0
CCCCNc1nnc(SC(C)C(=O)NC(=O)NC)s1 (centres undefined)	·	0.45
CS(=O)(=O)c1cnc(-c2ccncc2)nc1-c1ccc(Cl)cc1	-0.49	·
COc1ccc(C2/C(=C(\O)c3ccc(Cl)cc3)C(=O)C(=O)N2CCCN(C)C)c(OC)c1 (centres undefined)	-0.31	·
Cc1cc(/C=N/n2cnc3c(cnn3-c3ccccc3)c2=O)c(C)n1CC(C)C	·	-0.1
Cn1c(SCc2ccccc2)nnc1C1CCCN(CC(=O)Nc2ccc3c(c2)OCO3)C1 (centres undefined)	·	-0.65
Cc1noc(C)c1C(=O)N(CC(=O)NC1CCCC1)Cc1ccccc1F	·	0.75
O=C1CCCc2oc3ccc(NS(=O)(=O)c4cccs4)cc3c21	1.2	2.4
Cc1c(Cl)cccc1-n1c(CCc2ccc(O)cc2)n[nH]c1=S	-0.46	·
O=C(Nc1ccc(F)cc1)c1ccc(-c2nc(-c3ccc(F)cc3)cs2)cc1	0.3	·
CC(OC(=O)c1ccccc1NS(=O)(=O)c1ccc2[nH]c(=O)[nH]c2c1)C(=O)N1CCCCC1 (centres undefined)	·	0.45
COc1ccc2c(c1OC)C(=O)OC2Nc1nc2ccc(OC(F)(F)F)cc2s1 (centres undefined)	-0.2	-0.15
CC1(C)Cc2c(sc3c2c(=O)n(-c2ccccc2)c2nncn32)CO1	5.8	·
C#CC1(OC(C)=O)C(C)CN(C)CC1C (centres undefined)	·	-0.65

Record cards, as listed above.
Cc1c(Cl)cccc1-n1c(CCc2ccc(O)cc2)n[nH]c1=S is listed with CapD inh = -0.46; AID504770 = ·
COc1ccc(C2/C(=C(\O)c3ccc(Cl)cc3)C(=O)C(=O)N2CCCN(C)C)c(OC)c1 (centres undefined) is listed with CapD inh = -0.31; AID504770 = ·
C#CC1(OC(C)=O)C(C)CN(C)CC1C (centres undefined) is listed with CapD inh = ·; AID504770 = -0.65

More compounds
smiles	CapD inh	AID504770
CC(C)NC(C)(C)C#N	·	0.3
COc1ccc(-c2[nH]ncc2C(=O)O)cc1	-0.07	2.5
O=C(c1cccs1)N1CCC(N(C2CC2)S(=O)(=O)c2ccccc2)CC1	-0.41	·
O=C(Sc1ccc(Cl)cc1Cl)c1csc(-c2ccc3nonc3c2)n1	0.62	0.45
O=C(NN=Cc1c[nH]c2cnc(OCc3ccccc3)cc12)c1ccccc1Cc1ccccc1	-0.045	·
Cc1ccc(CN(C)CC(=O)Nc2ccccc2Cc2ccccc2)o1	·	-1.5
CC(C(=O)NC1CCCC1)N(C)CCOc1ccc(Cl)cc1 (centres undefined)	·	-0.1
CC(=O)N1CCc2cc(C(O)CN3CCN(c4cc(Cl)ccc4C)CC3)ccc21 (centres undefined)	0.78	-0.55
COc1ccc(O)c(C=Nc2ccccc2)c1	-0.61	0.05
COc1ccc(N2C(SC)=NC(=Nc3cccc(C)c3)C23CCCCC3)cc1	6	·
Cc1ccsc1CNCCCO	·	-0.5
CCOC(=O)c1ccc(NC(=O)C2CC(=O)N(C)C(=Nc3cccc(F)c3)S2)cc1 (centres undefined)	-0.49	·
CCN1C(=O)/C(=C2\C=Cc3ccccc3N2CC)SC1=S	·	-1.2
Cc1ccc(NC(=O)COc2ccccc2O)cc1C	-0.45	-0.05
CCOc1ccc(-c2cccc(NS(=O)(=O)N(C)C)c2)nn1	0.12	0.75
COc1ccc2c(O)c(N=O)ccc2c1	-2.7	-1.1
CCCOC(=O)C1=C(C)NC2=C(C(=O)CC(c3ccccc3)C2)C1c1cc2c(cc1Br)OCO2 (centres undefined)	3.9	·
Fc1ccc(-n2cc(-c3ccc4c(c3)OCO4)[nH]c2=S)cc1	4	0.05
COc1cc(C(=O)OCCN2C(=O)c3cccc4c(N5CCOCC5)ccc(c34)C2=O)cc(OC)c1OC	-0.005	·
O=C1c2ccccc2-c2onc3c(Br)cc(N4CCCCC4)c1c23	0.52	0.3
COc1cc(-c2nn(CCC(N)=O)cc2/C=C(\C#N)C(=O)O)ccc1OC(F)F	·	-0.45
Cc1ccccc1-c1nnn(CC(=O)N2N=C(c3ccc(Cl)cc3)CC2c2ccco2)n1 (centres undefined)	·	0.05
C=CCc1ccccc1OCC(O)CNC(C)C (centres undefined)	1.2&1.1	·
COc1ccc(S(=O)(=O)N2CCC(NC(=O)NCCC(C)C)CC2)cc1	-0.47	-0.25
Cc1cc(CN2CCS(=O)(=O)CC2)c(C(F)(F)F)o1	-0.15	2
S=C(NCCN1CCOCC1)N/N=C/c1ccccc1	·	-0.65
Cc1scc(C(=O)NCC2CCCCC2)c1C	-0.56	-0.65
COC(=O)[C@@H](Cc1c[nH]c2ccccc12)NC(=O)c1ccc2nc[nH]c2c1	·	-0.55
Cc1cc(C(=O)NC(C)C)n(-c2ccccc2)n1	0.12	0.8
CC(NC(=O)c1cc2c(=O)[nH]c3ccccc3c2n1C)c1ccc2c(c1)OCCO2 (centres undefined)	0.065	1
Oc1ccccc1-c1nc(N2CCCCCC2)c2ccccc2n1	-0.93	0.1
COc1ccc(N2CCN(S(=O)(=O)c3cccc(C)c3)CC2C)cc1 (centres undefined)	0.27	·
O=C(CC1CCS(=O)(=O)C1)Nc1ccc[nH]c1=O (centres undefined)	0.075	0.15
CCOC(=O)NC1c2ccccc2Oc2ccc(OC)cc21 (centres undefined)	-0.26	0.15
N#Cc1c(NC(=O)CCSc2nnc3ccccn23)sc2c1CCCC2	·	-0.3
CCC(SC1=N/C(=C/c2ccccc2)C(=O)N1c1ccccc1)C(=O)Nc1cc(C)on1 (centres undefined)	2.7	-0.55
